# Screening results from PubChem.
# Rce1 inhib: yeast Rce1p protease inhibitors, primary screen, biochemical, fluorescence, cell-free homogeneous; CAAX prenyl protease 2 (Saccharomyces cerevisiae (strain ATCC 204508 / S288c)), Q03530; yeast membranes, quenched prenylated peptide cleavage fluorescence; calls only; actives 0.27% (n = 290,000); AID 2563, 2010;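 active means fall in fluorescence gain of 50% or more versus controls, with final raw signal at or below 3038400; inconclusive means same 50% fall but final raw signal above 3038400; inactive means fall in fluorescence gain under 50%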;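 further: plate controls were neutral control wells for no effect and wells lacking membranes for full effect; tested at 10 µM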
# Target sequence (Q03530 whole entry, looked up): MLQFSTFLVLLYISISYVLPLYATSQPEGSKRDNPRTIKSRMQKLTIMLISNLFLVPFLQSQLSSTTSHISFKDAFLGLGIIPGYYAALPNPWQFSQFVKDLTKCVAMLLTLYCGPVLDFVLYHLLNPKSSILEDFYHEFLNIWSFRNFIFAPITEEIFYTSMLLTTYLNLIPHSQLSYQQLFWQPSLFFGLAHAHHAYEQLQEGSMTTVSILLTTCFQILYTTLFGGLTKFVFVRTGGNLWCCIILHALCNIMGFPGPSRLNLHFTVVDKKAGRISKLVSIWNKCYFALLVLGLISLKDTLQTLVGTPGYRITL
# PABP polyA inh: PABP poly(A) RNA binding inhibitors, primary screen, biochemical, fluorescence polarization, uHTS; inhibition, % at 35 µM; actives 1% (n = 290,000); AID 2014, 2009;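 active means 50% or more with normal probe brightness, or confirmed in later tests; inconclusive means above 50% with abnormal brightness, or retests that disagree; inactive means below 50% or failed in later tests; about a fifth of its hits are not listed in these tables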;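 further: calls also rest on retests at 20 µM and on dose response follow-up; controls were probe without protein and protein plus probe with vehicle; some compounds called inactive have numbers as strong as hits; many hits fall short of the cut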
# Yeast UUG start: modulators of yeast start codon fidelity, primary screen, whole organism, S. cerevisiae, single point, plate reader; S. cerevisiae UUG-firefly luciferase reporter, luminescence/redox ratio; activity score, % at 18.7 µM; actives 0.13% (n = 350,000); AID 602363, 2012;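 active means replicate mean at a twofold rise or more, about +100% in these data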;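 further: firefly luciferase made from a UUG start codon reports start codon fidelity; reporter light over untreated wells divided by growth signal over untreated wells; some hits fall short of that in this replicate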
# eIF4H FP inh: human eIF4H binding inhibitors, primary screen, translation initiation inhibitor project, biochemical, uHTS, fluorescence polarization; Eukaryotic translation initiation factor 4H (Homo sapiens), Q15056; eIF4H fluorescence polarization binding assay; inhibition, % at 35 µM; actives 0.94% (n = 290,000); AID 2012, 2009;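 active means 50% or more with normal probe brightness, or confirmed in later tests; inconclusive means above 50% with abnormal brightness, or retests that disagree; inactive means below 50% or failed in later tests; about a fifth of its hits are not listed in these tables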;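 further: calls also rest on retests at 20 µM and on dose response follow-up; 0% = protein and probe with vehicle and 100% = probe without protein; strong numbers were not always called active; many hits fall short of the cut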
# HIV Env fusion: inhibitors of HIV-1 Env-driven cell-cell fusion, primary screen, HeLa-JRFL effector, CEM21 target cells, luciferase; inhibition, % at 12.3 µM; AID 651610, 2012; actives 1.1% (n = 360,000);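 active means mean replicate inhibition score of at least 50 and every replicate individually at or above 50; inconclusive means only one of the two criteria met; inactive means mean below 50 and not all replicates reaching 50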;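 further: 0% = plate neutral controls and 100% = maraviroc near 300 nM; one replicate is shown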
# CSC inhib: cancer stem cell viability inhibitors, primary screen, luminescence | cancer stem cell-like cells viability | inhibition, % at 7.5 µM | actives 1.1% (n = 300,000);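 active means mean at 75% or more and at least half the replicates too; inconclusive means mean and replicates disagree; tested in HMLE shEcad cells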;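 further: 0% = median of negative and 100% = median of positive control wells; the first replicate is given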
# MT1-MMP act inh: blockers of MT1-MMP proenzyme processing, primary screen, HT1080 RFP-PRO-GFP cells, GFP/RFP fluorescence; actives 0.061% (n = 360,000); Matrix metalloproteinase-14 (Homo sapiens), P50281; GFP/RFP ratio fluorescence, overnight; percent of plate control window, DMSO zero; GFP/RFP ratio change, % at 20 µM;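 active means GFP/RFP ratio change of at least 30% with cell ATP level not reduced by more than half and red fluorescence within 50% of control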; further: strong numbers were not always called active
#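 Read-out: GFP/RFP fluorescence ratio; Test system: RFP-PRO-GFP reporter HT1080 cells; Compound dosing: single-point 20 µM compound, 1% DMSO; Times: overnight compound exposure at 37 °C.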
# MT1-MMP act inh RFP: second read-out of MT1-MMP act inh, no call of its own (marks repeat the call); RFP signal change, %; measured here: RFP expression control read;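 0 = vehicle wells; hits needed this value within 50% of zero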
# Starred values were filed as active, the others as inactive; i = inactive; ? = inconclusive; . = not tested or not shown; & = joins results of further samples; [ ] = dose if it differs, or a comment. A portion of the library. The share of hits here may be higher or lower than overall.
# The opening 2 compounds, to show the layout:
1. O=C(c1cc(-c2ccccc2Cl)on1)N1CCN(C(=O)c2ccco2)CC1
2. Nc1ccccc1C(=O)N(Cc1ccccc1)Cc1ccccc1
Compound,1,2
Rce1 inhib,i,i
MT1-MMP act inh,10,-2
CSC inhib,.,-10
MT1-MMP act inh RFP,3,-2
HIV Env fusion,.,6
eIF4H FP inh,-7,-1
Yeast UUG start,-8,7
PABP polyA inh,-6,-3

# The whole of this part, from the start:
1. O=C(c1cc(-c2ccccc2Cl)on1)N1CCN(C(=O)c2ccco2)CC1
2. Nc1ccccc1C(=O)N(Cc1ccccc1)Cc1ccccc1
3. CCOC(=O)N1CCC(NC(=O)Cn2cc3c(n2)CCCC3)CC1
4. CCOc1ccc2c(c1)c1nnc(SCC(=O)NC3CC3)nc1n2C
5. COc1cccc(CN(CC(=O)NC2CCCCC2)C(=O)c2csnn2)c1
6. O=C(Nc1ccccc1)/C(=C/c1ccc(F)cc1)NC(=O)c1ccco1
7. Cc1ccc(N(C)C(=O)c2cc(S(=O)(=O)N3CCCC3)cn2C)cc1
8. COc1ccc(CN(Cc2cc3cc4c(cc3[nH]c2=O)OCO4)C(=O)NC2CCCCC2)cc1
Compound,1,2,3,4,5,6,7,8
Rce1 inhib,i,i,i,i,i,.,i,i
MT1-MMP act inh,10,-2,5,4,1,2,-8,-11
CSC inhib,.,-10,-7,-1,15,-4,-11,12
MT1-MMP act inh RFP,3,-2,0,0,2,0,-1,-10
HIV Env fusion,.,6,9,-14,5,3,4,.
eIF4H FP inh,-7,-1,0,-5,-7,-1,-1,-3
Yeast UUG start,-8,7,-10,-9,-10,-13,-20,16
PABP polyA inh,-6,-3,-11,0,13,4,12,0

9. CCN(CC)Cc1c(C(=O)N/N=C/c2ccc(OCc3ccccc3C)cc2)nnn1-c1nonc1N
10. O=C(CCCOc1ccccc1)Nc1cccc(S(=O)(=O)N2CCOCC2)c1
11. O=C1CCC(c2ccccc2)=NN1Cc1c(F)cccc1Cl
12. CCOc1ccc(-n2c(=O)[nH]cc(C(=O)N3CCc4ccccc43)c2=O)cc1
13. CSc1nnc(C)c(/C=C/NOCc2cccc(F)c2)n1
14. O=C1c2ccccc2NC(c2ccc(-c3ccc(F)cc3)o2)N1O (stereo not drawn)
15. O=C(NCC(c1ccco1)N1CCN(c2ccc(F)cc2)CC1)c1cccs1 (stereo not drawn)
16. CC(=O)Nc1ccc(S(=O)(=O)C(C#N)c2nc3ccccc3nc2NCCO)cc1 (stereo not drawn)
Compound,9,10,11,12,13,14,15,16
Rce1 inhib,i,.,i,i,i,.,i,.
MT1-MMP act inh,2,5,0,0,-4,-3,6,-2
CSC inhib,11,7,-15,-13,.,17,3,-3
MT1-MMP act inh RFP,-8,-1,-9,5,1,0,-3,3
HIV Env fusion,-1,13,4,-35,11,-63,.,-13
eIF4H FP inh,13,.,-11,-10,-3,.,.,23
Yeast UUG start,0,-6,-23,.,3,-9,-10,-11
PABP polyA inh,-3,.,-11,-3,-4,.,.,17

17. COc1ccc(S(=O)(=O)N(C)C[C@H]2OCc3cnnn3CCCC(=O)N([C@H](C)CO)C[C@@H]2C)cc1
18. CCc1ccc(Nc2nnc(SC(C)C(=O)NC3CC3)s2)cc1 (stereo not drawn)
19. O=S(=O)(c1cccc(C(F)(F)F)c1)c1ccc(O)cn1
20. CCC(=O)Nc1ccc(C(=O)CSc2nc(N)cc(N)n2)cc1
21. COc1ccc2c(C)cc(SCC#N)nc2c1
22. CN(CC(=O)Nc1ccc(F)c(F)c1)S(=O)(=O)c1cccs1
23. CCN(CC)c1ccc2c(-c3ccc(S(=O)(=O)O)cc3S(=O)(=O)[O-])c3ccc(=[N+](CC)CC)cc-3oc2c1
24. CC(=O)Nc1ccc(C(=O)N(C2=NC(C)CS2)c2ccc(Cl)cc2)cc1 (stereo not drawn)
Compound,17,18,19,20,21,22,23,24
Rce1 inhib,.,.,i,i,i,.,i,i
MT1-MMP act inh,2,2,2,2,-20,1,-43,-4
CSC inhib,.,-20,-5,.,.,1,54,2
MT1-MMP act inh RFP,6,-1,0,4,7,-2,58,-4
HIV Env fusion,14[16.7 µM],.,-14,9,.,-9,.,-10
eIF4H FP inh,.,.,.,-6,16,-3,?,-11
Yeast UUG start,-14&6,-3,.,-12,-11,-9,-77,4
PABP polyA inh,.,.,.,3,15,-3,?,-13

25. CCOC(=O)c1c(C)n(C)c2ccc(O)c(CN3CCC(C)CC3)c12
26. O=C1CCC(C(=O)N2CCCC2)CN1Cc1cccc(C(F)(F)F)c1 (stereo not drawn)
27. Cc1ccc(-c2nc3c(c(SCC(=O)N4CCOCC4)n2)COC(C)(C)C3)cc1
28. CCOC(=O)COn1c(=O)c[n+]([O-])c2ccccc21
29. NS(=O)(=O)c1ccc(O)c(NC(=O)c2ccc([N+](=O)[O-])o2)c1
30. O=C(NCc1ccccc1Cl)c1ccc(S(=O)(=O)Nc2cccc(C(F)(F)F)c2)cc1
31. O=C(COc1ccc(F)cc1)NCCCn1ccnc1
32. Cc1csc(NC(=O)Cc2nn(C)c(=O)c3ccccc23)n1
Compound,25,26,27,28,29,30,31,32
Rce1 inhib,i,i,i,i,i,i,i,i
MT1-MMP act inh,3,-1,-2,-29,9,5,4,-3
CSC inhib,4,-17,-4,2,12,38,.,-12
MT1-MMP act inh RFP,1,3,-5,5,-3,0,4,-24
HIV Env fusion,.,-9,-19,-35,-13,.,-3,.
eIF4H FP inh,-6,3,-4,0,-3,0,-12,-7
Yeast UUG start,0,2,-23,-17,-10,.,-14,-18
PABP polyA inh,-5,-4,5,-4,1,-11,-1,-3

33. COc1c(Cl)cnn(-c2cccc(C)c2)c1=O
34. Cc1cccc(N(C(=O)CS(=O)CC(=O)Nc2ccc3c(c2)OCO3)C(C)C(=O)NC2CCCC2)c1C (stereo not drawn)
35. CN(CC(=O)Nc1cccc(F)c1)C(=O)CCNC(=O)c1ccc(Br)cc1
36. OCCC#Cc1ccc(CN2CCN(C3CCCCC3)C(CCO)C2)cc1 (stereo not drawn)
37. Cc1nn(C)cc1C(C)NC(=O)c1cc(COc2ccc(F)c(F)c2)on1 (stereo not drawn)
38. COc1ccc(C2=CCN3CCCCC3C2)c(-c2ccc(OC)c(OC)c2)c1 (stereo not drawn)
39. CC(C)CCN1CCN(Cc2ccc(Sc3nncn3C)o2)CC1CCO (stereo not drawn)
40. Cc1ccccc1C(=O)N1CCN(c2ccc(NC(=O)Cc3ccccc3)cc2)CC1
Compound,33,34,35,36,37,38,39,40
Rce1 inhib,i,i,i,i,i,.,i,i
MT1-MMP act inh,3,-5,-1,-2,-3,-2,-4,-4
CSC inhib,-3,1,-18,.,-5,.,-1,-3
MT1-MMP act inh RFP,1,-1,-1,1,-2,-2,-1,-7
HIV Env fusion,1,-6,10,-9,-6,-31,-12,.
eIF4H FP inh,-1,5,0,-1,-7,.,-2,2
Yeast UUG start,-18,.,4,.,-9,9,.,-5
PABP polyA inh,6,8,19,-4,0,.,-2,-6

41. C=CC[C@@H](CC(=O)N[C@H](CO)Cc1ccccc1)C(=O)N[C@@H](C)COC(=O)[C@@H](CC=C)CC(=O)OC(C)(C)C
42. Cc1cc(C)c(C)c(OCCCn2ccnc2)c1
43. COc1ccc(OC)c(CN2C(=O)c3ccccc3C2C(=O)NCC2CCCO2)c1 (stereo not drawn)
44. CCC(C)c1ccccc1N1CC(C(=O)N2CCN(C(=O)c3ccco3)CC2)CC1=O (stereo not drawn)
45. Cc1cccc2nc(-c3cccc(NC(=O)Cc4ccccc4)c3)cn12
46. CCN(CC)C(=O)CSc1nc(N)c(C(=O)Nc2ccc(OC)cc2)s1
47. Cc1c(C(=O)NCC2CCCO2)oc2ccc(S(=O)(=O)N3CCCC3)cc12 (stereo not drawn)
48. CCC1CCCCN1C(=O)c1ccc(OC2CCN(C(=O)COC)CC2)cc1 (stereo not drawn)
Compound,41,42,43,44,45,46,47,48
Rce1 inhib,.,i,i,.,i,i,i,i
MT1-MMP act inh,4,3,-4,7,13,2,10,-2
CSC inhib,.,-4,1,11,-10,-3,1,-7
MT1-MMP act inh RFP,-8,5,-2,2,0,4,1,2
HIV Env fusion,-63,.,-6,.,-9,4,17,-11
eIF4H FP inh,.,0,-6,.,2,-12,-3,-24
Yeast UUG start,11,-11,-17,2,-3,-10,5,-8
PABP polyA inh,.,9,-14,.,-2,-3,-4,-6

# Values by screen from the entries so far:
# PABP polyA inh, nos. 42 to 47 → 9, -14, ., -2, -3, -4
# eIF4H FP inh, nos. 42 to 47 → 0, -6, ., 2, -12, -3

# The listing picks up, starting two compounds before the break.
47. Cc1c(C(=O)NCC2CCCO2)oc2ccc(S(=O)(=O)N3CCCC3)cc12 (stereo not drawn)
48. CCC1CCCCN1C(=O)c1ccc(OC2CCN(C(=O)COC)CC2)cc1 (stereo not drawn)
49. CCc1nnc(NC(=O)CSc2nnc(C3CC3)n2C)s1
50. O=C1[C@H](Cc2ccccc2)NCC=CC[C@H](c2ccco2)N1Cc1ccccc1
51. Cc1ccsc1C(=O)OCC(=O)NCc1ccc2c(c1)OCO2
52. CC(C)C(C)NC(=O)Cn1cnc2c(oc3ccccc32)c1=O (stereo not drawn)
53. Nc1cc(Oc2ccc(F)cc2F)cc([N+](=O)[O-])c1
54. Cn1c(NCc2cc(Br)ccc2O)nc2ccccc21
55. CSc1ncccc1C(=O)OCC(=O)NC(N)=O
56. COc1ccc(CCNc2nc3ccccc3n3cnnc23)cc1OC
Compound,47,48,49,50,51,52,53,54,55,56
Rce1 inhib,i,i,i,.,i,i,i,i,i,i
MT1-MMP act inh,10,-2,3,-3,-3,2,2,11,3,7
CSC inhib,1,-7,-6,.,-15,-16,30,9,18,.
MT1-MMP act inh RFP,1,2,7,-4,3,3,-1,2,0,0
HIV Env fusion,17,-11,0,4,.,-26,3,16,-13,2
eIF4H FP inh,-3,-24,-1,.,-7,-14,7,3,-3,-13
Yeast UUG start,5,-8,-15,-12,.,-4,.,7,-20,-9
PABP polyA inh,-4,-6,5,.,5,-10,-10,11,10,2

57. NC(=O)CSc1nc(N)c2c3c(sc2n1)CCCCC3
58. C[C@H](CO)N1C[C@H](C)[C@@H](CN(C)S(=O)(=O)c2ccccc2)Oc2ccc(NC(=O)c3ccncc3)cc2C1=O
59. COc1cccc(OC)c1CNC(=O)CCSCc1ccccc1F
60. C/C(=N\Nc1ccc(C(=O)O)cc1)c1ccc(-n2ccnc2)cc1
61. O=S(=O)(Cc1ccccc1)N1CCN(Cc2ccc3c(c2)OCO3)CC1
62. COC(=O)c1nc(NC(=O)c2ccccc2Br)n[nH]1
63. COc1ccc(C(c2nnnn2Cc2ccccc2)N2CCN(C(=O)c3ccco3)CC2)cc1OC (stereo not drawn)
64. Clc1ccc(-c2csc(N3CCOCC3)n2)cc1
Compound,57,58,59,60,61,62,63,64
Rce1 inhib,i,.,i,i,i,.,i,i
MT1-MMP act inh,5,2,1,-2,-2,2,-1,0
CSC inhib,-18,-20,0,-3,13,.,.,.
MT1-MMP act inh RFP,3,-2,4,-1,-3,6,-5,1
HIV Env fusion,i,0,4,-21,25,9,.,-95
eIF4H FP inh,6,.,-5,0,-3,-11,1,-8
Yeast UUG start,-18,17&8,.,.,-12,.,10,.
PABP polyA inh,3,.,-19,-2,-6,-14,9,13
